Assay outcomes (PubChem BioAssay)
Proteasome disasm – blocks ATP-dependent breakdown of the yeast 26S proteasome; anti-FLAG beads, GFP-proteasome disassembly, flow cytometry; inhibition of disassembly, % (test concentration not listed); hit rate 0.2% among 24,000;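 active = above 40%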;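 also: plate controls were ATP control with full disassembly for no effect and ATP-gamma-S intact proteasomes for full effect; higher percent means more bead fluorescence retained so stronger block of disassembly; stock transfer was 100 nL into about 10 µL; wells with too few beads may also be inconclusive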
VCAM-1 up – enhancers of VCAM-1 display on endothelial cells, cell-based, plate reader, pooled HUVEC, TNFa stimulus (AID 455) | HUVEC TNFa-induced VCAM-1 immunofluorescence, plate reader; numbers were filed only for top-ranked candidate wells | augmentation, % at 5 µM | hit rate 0.2% among 10,000;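 active = a compound raising TNF-alpha-driven VCAM-1 surface staining, with its hit status upheld on visual or statistical review; inactive = the rest, including hits rejected on review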;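 also: 0% = TNFa with vehicle and 100% = strongest image-checked hit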
The depositor's hits bear a star; i = inactive; / = not tested or not shown.

SMILES	Proteasome disasm	VCAM-1 up
O=c1cc(N2CCC(Cc3ccccc3)CC2)[nH]c(=O)n1C1CCCCC1	6.8	/
Cc1cccc(NC(=O)CSc2nc3c(c(=O)[nH]2)CCC3)c1C	0.5	/
CC1C/C=C/C=C/C=C/C=C/C(O[C@@H]2O[C@H](C)[C@@H](O)[C@H](N)[C@@H]2O)CC2OC(O)(CC(O)CC3OC3/C=C/C(=O)O1)CC(O)C2C(=O)O (stereo partly specified)	4.2	i
COc1cc(C(=O)OCn2nnc3ccccc3c2=O)cc(OC)c1OC	2.2	/
Cc1ccc(NC(=O)c2nnn(CC(=O)Nc3ccccc3)c2N)cc1C	-0.5	/
O=C1C2C3C=CC(C3=C3CCCCC3)C2C(=O)N1c1ccccc1 (stereo unspecified)	0.4	i
CSC1=NCCN1C(=O)C(C)(C)Oc1ccc(Cl)cc1	-0.2	/
Cc1onc(-c2ccccc2)c1C(=O)NC(C)C	-1.8	/
COc1ccc(-c2cc(N)n(S(=O)(=O)Cc3ccccc3)n2)c(OC)c1	-0.9	/
Nc1nc(N)nc(-c2ccccc2)n1	-5.8	i
COc1ccc(N2CCN(C(=O)C(C)(C)Oc3ccc(Cl)cc3)CC2)cc1	0.0	i
CCC(C)NC(=O)C1CC(c2cccc(OC)c2)=NO1 (stereo unspecified)	0.5	/
CCCCNC(=O)c1ccc(CS(=O)(=O)c2cccc(C(F)(F)F)c2)o1	4.3	/
COC(=O)C1=C(C)OC(N)=C(C#N)C1C1CCCCC1 (stereo unspecified)	-0.5	/
Cn1c(COc2ccc(Cl)cc2)nc2ccccc2c1=O	-1.8	/
CN1CCN(c2ncnc3c2cnn3-c2ccc(Cl)cc2)CC1	-1.1	i
O=C(Cn1c(=O)oc2ccccc21)Nc1ccc(S(=O)(=O)N2CCCCC2)cc1	-0.4	i
COc1ccc(OCc2cccc(C(=O)O)c2)cc1	-3.5	i
CC(C)Cn1c(=O)c(C2=NS(=O)(=O)c3ccccc3N2)c(O)c2ccccc21	-2.0	i
O=C(CSc1nnc(-c2ccccc2Cl)n1Cc1ccco1)Nc1ccc2c(c1)OCCO2	-1.8	i
CCOC(=O)N1CCC(c2[nH][nH]c(=O)c2C)CC1	2.9	/
C=CCn1c(=O)[nH]c2cc(C(=O)N3CCN(c4cc(C)ccc4C)CC3)ccc2c1=O	-0.5	i
CC1=C(C(=O)Nc2ccccc2C)C2(CCCC2)C(C(N)=O)C(=O)N1 (stereo unspecified)	1.1	i
CC(C)N(C)C1CCN(C(=O)Nc2ccc(Cl)cc2)CC1	-0.2	/
COc1cccc(OCc2nc3ccccc3[nH]2)c1	0.9	i
N#CCSc1nc2cc(C(=O)N3CCC(C(N)=O)CC3)ccc2c2nc3ccccc3n12	-0.8	/
O=C(Nc1ccccc1)c1cnc2n(c1=O)CCS2	-0.3	i
COc1ccc(S(=O)(=O)Cc2ccc(C(=O)N3CCC(C(N)=O)CC3)o2)cc1	0.1	/
Cc1c(C(=O)N2CCCCC2)oc2ccc(S(=O)(=O)N3CC(C)CC(C)C3)cc12 (stereo unspecified)	1.1	/
Cc1ccc2oc(=O)c3cc(C(=O)N4CCN(C(=O)c5ccco5)CC4)sc3c2c1	1.8	/

Grouped by structure, the compounds so far containing an aryl thioether with sulfur outside any ring.
SMILES	Proteasome disasm	VCAM-1 up
Cc1cccc(NC(=O)CSc2nc3c(c(=O)[nH]2)CCC3)c1C	0.5	/
O=C(CSc1nnc(-c2ccccc2Cl)n1Cc1ccco1)Nc1ccc2c(c1)OCCO2	-1.8	i
N#CCSc1nc2cc(C(=O)N3CCC(C(N)=O)CC3)ccc2c2nc3ccccc3n12	-0.8	/

(further entries)
SMILES	Proteasome disasm	VCAM-1 up
COC(=O)c1cc(NC(=O)c2nccnc2C(=O)O)cc(C(=O)OC)c1	-1.2	/
O=C(c1cccn2c(=O)c3ccccc3nc12)N1CCN(Cc2ccc3c(c2)OCO3)CC1	-0.7	/
CC(=O)Nc1ccc(OCC(O)Cn2nc(C)nc2C)cc1 (stereo unspecified)	-1.0	i
CCOc1ccc(C2CC(c3ccccc3C)n3nc(N)nc3N2)cc1 (stereo unspecified)	-0.8	i
COc1cccc(NC2c3ccccc3C(=O)N2Cc2ccco2)c1 (stereo unspecified)	4.5	/
CCC(C)n1[nH]c(=O)c2c(C)cc(C)nc21 (stereo unspecified)	-2.7	i
O=C1CC2(CCCCC2)Oc2ccc(OCC(=O)N3CCOCC3)cc21	1.9	/
CC1CN(S(=O)(=O)c2ccc(NC(=O)CCN3C(=O)c4ccccc4C3=O)cc2)CC(C)O1 (stereo unspecified)	0.6	/
CC(=O)Nc1cc(C(=O)O)ccc1S(=O)(=O)c1ccc(C)cc1	0.8	/
Cc1c2c(nc3c(C(=O)NC4CCCC4)cnn13)CCCC2	-1.3	/
CCOc1ccc(CCNC(=O)C(C)n2nc(C)n3c(cc4occc43)c2=O)cc1OCC (stereo unspecified)	-1.3	/
O=C(C(Cc1ccccc1)n1cccc1)N1CCN(Cc2ccccc2)CC1 (stereo unspecified)	0.3	/
CCCNC(=O)NCCc1c(C)[nH]c2ccccc12	0.8	/
CCN1CCN(CCNC(=O)c2cn(C(C)c3ccccc3F)nn2)CC1 (stereo unspecified)	1.6	i
Cc1ccc(CNC(=O)c2ccc(NS(=O)(=O)c3c(C)noc3C)cc2)cc1	0.3	/
CC(C)(C)OC(=O)N1CCC(c2c(C(=O)O)cnn2-c2ccccc2)CC1	-0.2	/
O=C(NCCCN1CCOCC1)c1ccc(CNS(=O)(=O)c2ccc(F)cc2)cc1	-2.1	/
O=C(C1CC1)N1CCc2cc(S(=O)(=O)N3CCOCC3)ccc21	-0.8	/
CN(CCNC(=O)c1ccc(N2CCCC2=O)cc1)CCc1ccccc1	-1.3	i
COCCn1c(=O)[nH]c2cc(C(=O)N3CCN(Cc4ccc5c(c4)OCO5)CC3)ccc2c1=O	-1.2	i
COCCCN(C)C1CCN(C(=O)Nc2ccc(F)cc2)CC1	0.2	i
CN(C(=O)c1ccccc1Cl)c1ccccc1	0.9	i
COc1ccc(S(=O)(=O)N2CCN(CC(=O)Nc3ccc(C)c(F)c3)CC2)cc1	2.1	i
O=C(NCc1ccccc1)c1noc2c1CCCC2	-0.7	/
Cn1c(C(=O)NCCCN2CCCCCC2)cc2c(=O)n(C)c3ccccc3c21	1.6	i
CCOc1cc(C2c3c(n[nH]c3C)C(=O)N2c2ccc(Br)cc2)ccc1O (stereo unspecified)	4.6	i
COc1ccc(S(=O)(=O)Cc2ccc(C(=O)NCc3ccco3)o2)cc1	0.3	/
CCC1CCCCN1C1Sc2ccc(C(=O)OC)cc2NC1=O (stereo unspecified)	11	/
CCOc1ccc2c(O)csc2c1	1.7	i
COC(=O)CNC(=O)CCCCC(=O)NCC(=O)OC	-2.2	/
Cc1cc2c(cc1C)-c1nnnn1C(C)(C)C2	-1.0	i
CC1(C)CC(=O)c2cc(OCC(=O)NCCCN3CCN(c4ccccc4F)CC3)ccc2O1	0.6	i
CC(C)(C)n1nc2c(c1NC(=O)c1ccc(Br)o1)CS(=O)C2 (stereo unspecified)	-0.6	/
CC(C)NC(=O)c1ccccc1NC(=O)CCS(=O)(=O)Cc1ccccc1	-0.3	i
Cc1ccc(SCC(=O)NCCN2C(=O)CSC2=O)c(C)c1	1.4	i
COc1cc(C(=O)N2CCN(C(=O)CC(C)C)CC2)cc(OC)c1OC	0.7	i
CCOCC(=O)Nc1c(C(=O)OCC)oc2ccccc12	-1.4	/
Cc1cc(C)c2nc(N3CCCC(C(=O)N4CCC(C(N)=O)CC4)C3)sc2c1 (stereo unspecified)	-0.4	/
CC1CCN(Cc2ccc(NC(=O)CC3Oc4ccccc4NC3=O)cc2)CC1 (stereo unspecified)	0.1	/
CCCCC(CC)CNC(=O)CCS(=O)(=O)c1cccc2nsnc12 (stereo unspecified)	-1.2	/
COc1cccc(-c2cc(C(=O)N3CCN(Cc4ccccc4)CC3)no2)c1	0.2	/
CC1(C(=O)NCc2cccnc2)CCC(=O)N1CCc1ccccc1 (stereo unspecified)	1.8	/
Cc1cccc(-n2c(=O)[nH]c3c(C(N)=O)nc(CC(C)C)nc32)c1	3.0	/
COc1ccc(CNC(=O)CCc2nc(-c3ccccc3F)no2)c(OC)c1	0.9	i
O=C(Oc1ccc(Cl)c2cccnc12)N1CCOCC1	-2.3	/
COc1ccc(CNC(=O)CS(=O)Cc2nc(-c3ccc(C)cc3)oc2C)cc1 (stereo unspecified)	1.5	/
CCOC(=O)N1CCC(NC(=O)CCN2C(=O)COc3ccccc32)CC1	0.1	i
O=C(O)C1CCN(C(=O)NC2CCCCC2)CC1	0.0	/
CCCOc1ccc(C2c3c(oc4cc(C)c(C)cc4c3=O)C(=O)N2CCCN2CCOCC2)cc1 (stereo unspecified)	0.8	/
O=C(CN1CCN(S(=O)(=O)c2cc(Cl)ccc2Cl)CC1)Nc1ccc2c(c1)OCCO2	0.6	/

More results follow:
SMILES	Proteasome disasm	VCAM-1 up
Cc1ccc(N2C(N)=C(C#N)C(c3cccnc3)C3=C2CCCC3=O)cc1 (stereo unspecified)	0.0	/
COCc1nnc(NS(=O)(=O)c2ccc(Br)cc2)s1	-0.5	i
Cc1ccc(S(=O)(=O)NCC2CCC(C(=O)NCCCN3CCOCC3)CC2)cc1 (stereo unspecified)	0.4	i
O=C(NC1CCCCCCC1)C1CCC(CNc2c(N3CCCC3)c(=O)c2=O)CC1 (stereo unspecified)	-1.4	/
O=C(C1CCN(S(=O)(=O)N2CCOCC2)CC1)N1CCN(Cc2ccc3c(c2)OCO3)CC1	0.0	/
Cc1ccc(S(=O)(=O)NCC(c2cccnc2)N(C)C)cc1 (stereo unspecified)	3.6	i
COc1cc(NC(=O)Nc2cccc(Cl)c2)c(OC)cc1NC(=O)CN1CCCCC1	0.9	i
CCCN(CCC)CCCNC(=O)CC(C(=O)N1CCc2ccccc21)n1ccnc1 (stereo unspecified)	-0.2	/
COc1ccccc1CNC(=O)Cn1cc2c(n1)CCCC2	0.1	/
OC(Cn1nnc2ccccc21)Cn1c(C(F)(F)F)nc2ccccc21 (stereo unspecified)	0.7	/
Cc1cc(NC(=O)CSCCc2ccncc2)no1	-0.5	/
CCOc1ccc(NC(=O)c2ccc3c(c2)N(Cc2ccc(F)cc2)C(=O)CS3=O)cc1 (stereo unspecified)	-0.7	i
CCn1c(SCC(=O)N2CCOCC2)nc2c(c1=O)SC(C)C2 (stereo unspecified)	-0.8	i
O=C(c1cc2n(n1)C(C(F)(F)F)CC(c1ccc(F)cc1)N2)N1CCCC1 (stereo unspecified)	1.7	/
CC1=C(C(=O)N(C)CCC#N)C2(CCCCC2)OC1=O	-0.5	/
Nc1ncnc2nc(SCCN3CCCCC3)[nH]c12	0.5	i
CCOC(=O)N1CCN(C(=O)Nc2ccc3oc(C)nc3c2)CC1	0.8	i
CCS(=O)(=O)N1CCC(C(=O)OCC(=O)c2ccc(Br)cc2)CC1	-1.0	/
C[N+](C)(C)CCNC(=O)c1c(O)c2c([nH]c1=O)CCCC2	1.5	/
CCCOc1ccc2oc(=O)c3c(c2c1)CCCN3C(=O)CN1CCCC(C(=O)OCC)C1 (stereo unspecified)	0.0	/
COc1ccc(OC)c(CNC(=O)C2CCN(C(=O)N(C)C)CC2)c1	-1.0	/
Cc1cccc(C)c1OCC(O)Cn1ccnc1C (stereo unspecified)	2.0	/
Cc1cccc(C)c1NC(=O)Nc1cccs1	1.0	/
CCN1CCN(C(c2cccs2)C(C)NC(=O)c2ccccc2)CC1 (stereo unspecified)	0.1	i
O=C(NCC(c1cccnc1)N1CCOCC1)c1ccc2c(c1)OCO2 (stereo unspecified)	0.7	/
CCS(=O)(=O)N1CCCC(C(=O)N2CCc3ccccc3C2)C1 (stereo unspecified)	-2.2	/
CC(C)(O)C#Cc1ccc(C(=O)N2CCN(C(=O)c3ccco3)CC2)cc1	-0.1	i
CCCCCNC(CC(=O)Nc1ccc(OC)cc1)C(=O)O (stereo unspecified)	0.3	/
CCOC(=O)c1cccnc1SCC(=O)NC(C)CC (stereo unspecified)	-1.0	i
COc1ccc(C(=O)c2oc3ccc(OC)cc3c2N)cc1	-0.6	/
COC(=O)c1ccccc1NC(=O)C(CCS(C)(=O)=O)NC(C)=O (stereo unspecified)	0.6	/
COc1ccc(CNC(=O)c2c(O)c3cccc4c3n(c2=O)CCC4)cc1OC	1.1	/
Cc1ccc(C2CC(c3ccco3)n3nc(N)nc3N2)cc1 (stereo unspecified)	-0.3	/
Cc1cc(C)n(-c2nc3ccccc3nc2N2CCOCC2)n1	9.2	/
COCCSc1ccccc1C(=O)Nc1nncs1	-0.1	i
CCOC(=O)c1c(-c2cccs2)csc1NC(=O)CCCC(=O)O	2.2	i

Compounds shown so far that have an NH in an aromatic ring:
SMILES	Proteasome disasm	VCAM-1 up
O=c1cc(N2CCC(Cc3ccccc3)CC2)[nH]c(=O)n1C1CCCCC1	6.8	/
Cc1cccc(NC(=O)CSc2nc3c(c(=O)[nH]2)CCC3)c1C	0.5	/
CCOC(=O)N1CCC(c2[nH][nH]c(=O)c2C)CC1	2.9	/
C=CCn1c(=O)[nH]c2cc(C(=O)N3CCN(c4cc(C)ccc4C)CC3)ccc2c1=O	-0.5	i
COc1cccc(OCc2nc3ccccc3[nH]2)c1	0.9	i
CCC(C)n1[nH]c(=O)c2c(C)cc(C)nc21 (stereo unspecified)	-2.7	i
CCCNC(=O)NCCc1c(C)[nH]c2ccccc12	0.8	/
COCCn1c(=O)[nH]c2cc(C(=O)N3CCN(Cc4ccc5c(c4)OCO5)CC3)ccc2c1=O	-1.2	i
CCOc1cc(C2c3c(n[nH]c3C)C(=O)N2c2ccc(Br)cc2)ccc1O (stereo unspecified)	4.6	i
Cc1cccc(-n2c(=O)[nH]c3c(C(N)=O)nc(CC(C)C)nc32)c1	3.0	/
Nc1ncnc2nc(SCCN3CCCCC3)[nH]c12	0.5	i
C[N+](C)(C)CCNC(=O)c1c(O)c2c([nH]c1=O)CCCC2	1.5	/

This is a subset. The share of hits here may be higher or lower than overall.
